CtBP-E1A inh: blocks the CtBP interaction with E1A. AlphaScreen GST-E1A/His-CtBP binding, 1536-well; stronger effect = lower value; control for the full effect not named in the record. activity change, % (no concentration beside the values). 0.49% of 340,000 active. AID 651724; in the data active means activity change below about -65%; inconclusive means about -30% to -65%; inactive means above about -30%; further: on the % scale 0 is the no-effect control and ±100 the full control effect; compound concentration not given in the record
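Steps: dispense buffer (Tris pH 8.0, NaCl 300 mM, TCEP 1 mM, BSA, Tween 20); add 5X protein mix (GST-E1A, His-CtBP, 125 nM each); pin 23 nL compound; 2 h at 37 °C, dark; add 5X beads (50 ug/mL); 1 h; read.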
PINK1 expr mod: modulators of PINK1 expression. Potency, µM (doses to about 76.6 µM), without a hit: top-dose activation (PINK1 increase), hits mostly activators. PINK1 immunofluorescence, high-content cytometry, 24 h. AID 624263. 0.2% of 410,000 active; active = well fitted activation curve with a large enough effect; inconclusive = small, poorly fitted or top-dose-only effect; inactive = flat fitted curve, though single readings scatter; cell line not stated here;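 further: potency means the concentration at half of the fitted maximal effect; % of control where 0% means no effect; nearly all actives have a fitted effect of over 65% in size; a mitochondrial uncoupler was the plate control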
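Fluorescence from anti-PINK1 antibody, together with nuclear and cell stains, was scanned on a laser-scanning cytometer. Before staining, stable-line cells were incubated 24 hours with compounds at 5 concentrations; primary antibody 12 h at 10 degrees C.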
D2 agonist: activates the human D2 dopamine receptor | 0.084% of 360,000 active | P14416 | DiscoveRx PathHunter D2 beta-arrestin, luminescence, 90 min; 100% = 57 uM dopamine signal | activation, % (concentration not given with the values); in the data active = activation above about 40%; inconclusive = about 15% to 40%; inactive = below about 15%; further: compound concentration not given in the record; the text of the record calls up to 30% inactive
Target sequence (P14416 whole entry, looked up): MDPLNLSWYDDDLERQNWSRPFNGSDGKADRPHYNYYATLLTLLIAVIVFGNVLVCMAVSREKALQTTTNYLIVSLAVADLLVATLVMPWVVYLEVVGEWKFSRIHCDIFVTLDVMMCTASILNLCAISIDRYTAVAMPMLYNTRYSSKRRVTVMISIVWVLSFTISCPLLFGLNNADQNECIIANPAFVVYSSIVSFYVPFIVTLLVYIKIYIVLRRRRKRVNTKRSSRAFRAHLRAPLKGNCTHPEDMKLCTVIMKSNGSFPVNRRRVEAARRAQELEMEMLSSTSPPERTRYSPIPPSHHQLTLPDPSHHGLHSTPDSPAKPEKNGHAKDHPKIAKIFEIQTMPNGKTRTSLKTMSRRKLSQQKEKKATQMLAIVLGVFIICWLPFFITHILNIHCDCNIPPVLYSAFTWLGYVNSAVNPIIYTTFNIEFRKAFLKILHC
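DiscoveRx PathHunter D2 beta-arrestin cells (2,100/well) attached overnight, then compound-stimulated 90 min at 37 C in HBSS/10 mM HEPES/0.1% Tween-20 buffer; beta-galactosidase complementation read by luminescence after 1 h at ambient temperature. Dopamine 57 uM final (EC100) as control.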
TRPML1 blocker: human mucolipin-1 channel inhibition; AID 624415; Q9GZU1; 0.02% of 390,000 active; TRPML1-inducible cells, Ca2+ dye fluorescence, FDSS; stronger effect = lower value; inhibition of EC80 agonist-evoked calcium signal; activity change, negative = inhibition, % (concentration not given with the values); in the data active means activity change below about -50%; inconclusive means about -30% to -50%; inactive means above about -30%;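 further: stimulus is agonist 54-4 at its EC80 concentration; on the % scale 0 is the no-effect control and ±100 the full control effect; compound concentration not given in the record; the text of the record puts the active cut at -80%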
Target sequence (Q9GZU1 whole entry, looked up): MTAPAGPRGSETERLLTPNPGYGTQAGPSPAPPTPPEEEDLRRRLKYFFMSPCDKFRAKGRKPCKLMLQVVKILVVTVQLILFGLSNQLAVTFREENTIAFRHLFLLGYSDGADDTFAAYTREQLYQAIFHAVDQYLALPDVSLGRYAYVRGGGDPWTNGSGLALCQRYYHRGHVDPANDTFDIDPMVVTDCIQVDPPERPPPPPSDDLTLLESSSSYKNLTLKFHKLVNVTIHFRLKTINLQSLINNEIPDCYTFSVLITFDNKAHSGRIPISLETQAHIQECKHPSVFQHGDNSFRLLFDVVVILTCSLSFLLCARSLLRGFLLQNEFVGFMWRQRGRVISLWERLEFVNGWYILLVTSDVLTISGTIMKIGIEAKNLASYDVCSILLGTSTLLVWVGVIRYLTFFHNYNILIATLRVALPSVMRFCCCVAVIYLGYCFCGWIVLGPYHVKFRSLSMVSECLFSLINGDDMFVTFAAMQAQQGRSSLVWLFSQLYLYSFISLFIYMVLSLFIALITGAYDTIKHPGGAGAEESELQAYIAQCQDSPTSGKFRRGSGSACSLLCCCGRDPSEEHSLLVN
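Tet-induced TRPML1-DL cells loaded with Ca8 no-wash calcium dye were read kinetically on FDSS. Compound addition was followed by EC80 agonist 54-4 (4 uM final); inhibition was read over 110 s.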
TRPML1 agonist: agonists of human TRPML1 channel; AID 624414; 0.12% of 410,000 active; Q9GZU1; activation, % (test concentration not listed); TRPML1-expressing cells, Ca2+ dye fluorescence, FDSS; host cell line not named in the record; reference of the full effect not given here; in the data active = activation above about 50%; inconclusive = about 30% to 50%; inactive = below about 30%; further: 0% is about no effect; the text of the record puts the active cut at 80%
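In this qHTS format, compounds were pin-transferred onto Ca8-dye-loaded TRPML1-DL cells induced with Tet overnight, and intracellular Ca2+ fluorescence was recorded kinetically for 110 s after a 10 s baseline. A subsequent 4uM final 54-4 (EC80) addition followed by a second 110 s read served as the antagonist phase.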
Six1-Eya2 inh: Six1/Eya2 interaction inhibition; Q15475+O00167; AlphaScreen GST-Six1/His-Eya2 binding, biochemical; stronger effect = lower value; control for the full effect not named in the record; activity change, % (concentration not given with the values); 0.56% of 360,000 active; in the data active = activity change below about -65%; inconclusive = about -30% to -65%; inactive = above about -30%; further: on the % scale 0 is the no-effect control and ±100 the full control effect
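GST-Six1 + His-Eya2 (5X stock: 250/500 nM); Tris pH 8.0, 300 mM NaCl, 0.05% BSA, 0.02% Tween 20; GSH donor/Ni acceptor beads; 1 h 37 °C dark; AlphaScreen readout.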
An asterisk follows results filed as active; ? = inconclusive; . = not tested or not shown; & = joins results of further samples; [ ] = remark or other dose.

SMILES	CtBP-E1A inh	PINK1 expr mod	D2 agonist	TRPML1 blocker	TRPML1 agonist	Six1-Eya2 inh
CC(C)(C)c1nnc(NC(=O)c2cc(-c3ccccc3)nc3ccccc23)s1	-3.2	1.9%	-1.2	0.8	-0.6	2.4
COc1ccc(-c2noc(CCCC(=O)N3CCN(c4cc(C)ccc4C)CC3)n2)cc1	1.0	0.0%	1.3	-8.9	0.3	-1.3
COc1cc(CN(C(=S)NCC(=O)O)C2CCCC2)cc(OC)c1OC	5.8	0.0%	0.0	4.6	-0.3	-1.7
Cc1ccc(S(=O)(=O)Nc2cccc(C(=O)NCC(c3ccco3)N3CCCC3)c2)cc1F (centres undefined)	-8.3	1.6%	2.2	-23.4	-0.8	-7.3
COc1ccc2[nH]c(C)c(CCNC(=S)Nc3cc(C)ccc3C)c2c1	-4.7	11.8%	-2.2	1.9	-1.1	9.3
CC[C@@H](C)[C@H](CN[C@H](CNC)C(C)C)NC[C@@H](C)c1ccc(CC(C)C)cc1	-7.0	-0.8%	-0.3	13.2	-0.1	-0.5
COc1ccc(CNC(=O)Cn2cnc3c(NCc4ccccc4)ncnc32)cc1	-0.1	9.7%	0.3	-2.5	-1.2	-0.9
CCOC(=O)C(Cc1c(F)cccc1Cl)c1ccnc2nc(N)nn12 (centres undefined)	.	-1.0%	-3.2	2.3	0.4	9.0
Cc1cccc(OC(=O)NCCOC(=O)N(O)c2ccc(Cl)cc2)c1	-1.3	3.7%	2.0	-9.0	-0.7	4.8
O=S(=O)(c1ccc(Br)cc1)c1nnn2c1nc(N1CCOCC1)c1sccc12	.	0.6%	.	-15.5	0.6	.
CC(C)c1ccc(CNc2nc(-c3ccco3)nn2S(=O)(=O)c2ccc3ccccc3c2)cc1	.	0.2%	.	56.4	3.2	.
O=C(CCNC(=O)c1ccc([N+](=O)[O-])cc1)Nc1cccc(S(=O)(=O)N2CCCCCC2)c1	-3.3	-1.8%	11.1	1.1	1.8	-9.8
O=C(Nc1cccc([N+](=O)[O-])c1)c1ccc(N2CCCC2=O)cc1	.	4.6%	-9.3	3.2	0.1	5.6
C[C@@H](CO)NC(=O)c1[nH]cnc1C(=O)Nc1ccc(CNC(=O)OC(C)(C)C)cc1	-11.3	-1.2%	1.1	3.2	-0.2	-1.3
S=C(NC1CCCC1)N1CCOCC1	0.0	3.1%	2.0	-1.0	-0.1	-0.8
O=C(Nc1cccc2cccnc12)OC(Cl)(Cl)Cl	.	0.2%	.	11.8	4.3	.
Cc1ccc2c(c1)nnn2C1CCN(S(=O)(=O)c2ccc(C(=O)N(C)C3CCCCC3)cc2)CC1	-20.7	-5.2%	-2.8	-14.7	2.1	2.7
CCC(=O)N1c2ccccc2CC1C(=O)NCCCN1CCN(c2cc(C)ccc2C)CC1 (centres undefined)	.	0.1%	.	?	1.0	.
c1ccc(Nc2nc(N3CCCC3)nc(N3CCCC3)n2)cc1	-3.4	6.2%[38.3 µM]	-3.9	7.3	5.3	-1.6
CCn1c(O)c(C2=c3ccccc3=NC2=O)c2cc(Br)ccc21	5.2	0.9%	-0.6	-3.2	0.9	-9.6
CCOc1ccccc1-c1cc(-c2n[nH]c(=S)n2CC)c2ccccc2n1	-0.3	0.2%	1.5	6.0	1.4	-6.7
O=C1C(NS(=O)(=O)c2cccs2)=C(N2CCOCC2)C(=O)c2ccccc21	-16.4	-1.0%	-6.1	2.7	0.9	-11.2
CC(C)(C)[C@H]1COC(=O)[C@@H](NC(=O)OCC2c3ccccc3-c3ccccc32)C/C=C\C[C@@H](CC(=O)N[C@@H](CO)Cc2ccccc2)C(=O)N1	4.7	7.3%	-5.5	19.5	0.7	7.6
Cc1ccc2nc(SCC(=O)N3CCN(c4ccccc4)CC3)nc(=O)n2c1	0.0	-2.2%	2.7	3.5	-0.1	-9.6
CC(=O)c1ccc(NC(=S)NC(=O)/C=C/c2ccccc2)cc1	2.1	1.5%	6.1	-4.5	-0.2	6.3
COc1cc(/C=N\NS(=O)(=O)c2ccccc2)cc(OC)c1OC	.	0.0%	1.1	-15.8	-0.5	6.5
COc1ccc(-c2c(C(=O)c3ccccc3)[nH]c(N)c2C(=O)c2ccccc2)cc1OC	0.0	1.2%	.	.	-0.9	-3.3
CCOC(=O)Cn1c(-c2cccnc2Cl)nc2ccccc21	2.4	4.0%[38.3 µM]	-1.7	-4.6	0.5	5.2
CCCC1CC(CCc2ccccc2)OS(=O)(=O)N1 (centres undefined)	-2.5	3.9%	-3.1	-4.0	-0.8	-7.2
CC(C)c1ccc(N(CC(=O)NCCSCc2ccco2)S(C)(=O)=O)cc1	0.2	0.2%	0.3	3.9	1.6	-1.9
CCOC(=O)C(C)Oc1ccc(NC(=O)C(Cl)(Cl)Cl)cc1 (centres undefined)	-3.0	2.2%	-3.4	2.1	-0.2	3.9
COc1ccc2cc(-c3ccon3)ccc2c1	15.6	1.5%	2.4	2.5	2.4	6.8
CN(C)c1ccc(NS(=O)(=O)c2cccc(Cl)c2)cc1	-9.9	11.8%	4.6	-6.1	2.1	-16.9
CCOCCCN(C)C1CCN(C(=O)c2oc3ccccc3c2NC(=O)c2ccc(F)cc2)CC1	2.1	0.5%	-2.1	-12.8	-0.3	-9.7
COC(=O)[C@@]1(C)[C@H]2C(=O)N(Cc3ccccc3)C(=O)[C@H]2[C@H]2CN=C(SCC3CC3)N21	2.4	0.0%	-0.4	23.1	3.8	5.9
O=C(CSc1nnc(CNC(=O)c2ccccc2)o1)c1ccc(Cl)cc1	4.5	0.2%	0.4	20.0	0.0	-0.9
Cc1cccc2nc3ccccc3nc12	-9.4	2.1%	4.1	4.8	0.3	-4.3
COc1ccc(C(=O)N/C(=C\c2ccc(SC)cc2)C(=O)NCCCn2ccnc2)cc1OC	2.4	-2.0%	-3.8	-2.8	-0.2	-7.6
CC(Sc1nnc(C2CC2)n1-c1ccccc1)C(=O)N1CCNC1=O (centres undefined)	0.0	0.6%	-3.9	-15.9	-0.3	4.4
O=C(NC(=S)Nc1ccc(S(=O)(=O)Nc2nccs2)cc1)c1ccc(F)c(F)c1	8.2	1.1%	-5.3	3.0	0.2	-22.6
COc1ccc(NC(=O)CN2C(=O)c3ccccc3S2(=O)=O)cc1OC	-16.1	0.5%	0.3	-5.5	0.5	-6.3
Cc1nc(-c2nnc(-c3ccccc3)o2)c(C(F)(F)F)o1	2.7	1.4%	-1.9	38.7	0.3	-4.0
Cc1nc2ccccn2c1/C(O)=C1\C(=O)C(=O)N(CCN(C)C)C1c1cccnc1 (centres undefined)	5.2	0.4%	-1.8	-13.1	-0.9	-0.9
Cn1cc(S(=O)(=O)N2CCCC2)cc1C(=O)N1CCN(c2ccccc2)CC1	6.6	-0.1%	0.0	-11.4	0.1	3.4
COc1ccc(N(CC(=O)N2CCc3ccccc3C2)S(=O)(=O)c2ccccc2)cc1	-16.2	0.2%&1.6%	-2.6	4.4&-3.0	0.6&-0.2	14.6
Cc1cc(C)n(-c2nc(Nc3ccccc3C(F)(F)F)nc(-n3nc(C)cc3C)n2)n1	-7.0	?	3.3	22.8	-0.6	-1.4
CCOC(=O)c1ccccc1NC(=O)C1CCCO1 (centres undefined)	6.7	1.2%	-1.8	-9.0	0.3	1.5
CCOC(=O)N1CCN(C(=O)C(NC(=O)C2CCC(C)CC2)C(C)C)CC1 (centres undefined)	-3.7	-1.9%	-2.3	-19.9	-0.1	1.9
CCCNC(=O)C1CCC(Cn2c(=O)c3sccc3n(CC(=O)N3CCC(C)CC3)c2=O)CC1 (centres undefined)	.	2.7%	.	8.9	0.5	.
Cc1noc(C)c1C(=O)OCC(=O)Nc1cccc(S(=O)(=O)N(C)C)c1	-9.7	2.0%	0.3	-3.0	1.5	13.0
CC(=O)c1ccc([C@H]2C[C@@]34CN(C(=O)OC(C)(C)C)S(=O)(=O)[C@H]3C[C@H]2O4)cc1	-21.5	-0.8%	-3.6	3.6	1.4	1.3
COC(=O)c1cccc(NS(=O)(=O)c2ccc(OC)cc2)c1C	-0.1	20.9%	-0.7	2.8	0.7	-4.1
CC(C)COC(=O)n1c(SCC(N)=O)nc2ccccc21	.	1.2%	-2.5	3.4	-0.4	0.0
CCCCNS(=O)(=O)c1ccc(NC(=O)c2c(-c3ccccc3)noc2C)cc1	.	-1.2%	.	-6.4	0.6	.
CC(C#N)Sc1ncnc2sc(-c3ccccc3)cc12 (centres undefined)	7.8	0.5%	-5.1	-8.5	0.0	19.5
O=C(Cn1cccc1C(=O)c1ccccc1)NCc1cccs1	6.5	1.7%	-3.3	-15.7	-1.5	-3.3
CC(C)N1CCC(N2CCN(Cc3cccnc3)CC2CCO)CC1 (centres undefined)	7.5	-0.1%	-2.6	14.8	-0.6	0.3
CCOc1ccc(CCNC(=O)c2ccc(C)c(N3CCCC3=O)c2)cc1OCC	.	1.7%	0.7	2.2	0.7	-2.1
COc1ccccc1NC(=O)CN1C(=O)CC(C)S(=O)(=O)c2ccccc21 (centres undefined)	5.4	-3.0%	-1.0	3.4	0.3	4.3
CC(C)(C)NS(=O)(=O)NC(=O)C1=C(N2CCCC2)COC1=O	-3.6	-0.4%	-3.0	25.9	0.1	12.7

Another view of three compounds above:
> CC(C)COC(=O)n1c(SCC(N)=O)nc2ccccc21
  CtBP-E1A inh: .
  PINK1 expr mod: 1.2%
  D2 agonist: -2.5
  TRPML1 blocker: 3.4
  TRPML1 agonist: -0.4
  Six1-Eya2 inh: 0.0
> CC(C#N)Sc1ncnc2sc(-c3ccccc3)cc12 (centres undefined)
  CtBP-E1A inh: 7.8
  PINK1 expr mod: 0.5%
  D2 agonist: -5.1
  TRPML1 blocker: -8.5
  TRPML1 agonist: 0.0
  Six1-Eya2 inh: 19.5
> CCOc1ccc(CCNC(=O)c2ccc(C)c(N3CCCC3=O)c2)cc1OCC
  CtBP-E1A inh: .
  PINK1 expr mod: 1.7%
  D2 agonist: 0.7
  TRPML1 blocker: 2.2
  TRPML1 agonist: 0.7
  Six1-Eya2 inh: -2.1

Continued.
SMILES	CtBP-E1A inh	PINK1 expr mod	D2 agonist	TRPML1 blocker	TRPML1 agonist	Six1-Eya2 inh
CCOc1ccccc1NC(=O)c1cc2cc3cc(C)ccc3nc2s1	.	0.9%	.	4.6	-0.1	.
Cc1ccc(C)c(NC(=O)c2c(Cl)nc3ccccn23)c1	-14.6	7.1%	-0.6	0.3	-0.3	6.0
CCCC(=O)NC(C)c1nc(-c2ccc(C)cc2)no1 (centres undefined)	7.7	-0.2%	-2.0	-20.3	-0.4	2.2
CCC1=NNC(=O)C(CC(=O)Nc2ccccc2)c2cc(OC)c(OC)cc21 (centres undefined)	6.2	1.9%	-1.2	-10.4	0.0	-4.5
CN(C)S(=O)(=O)N1CCCC(C(=O)c2ccc(-c3ccccc3)c(F)c2)C1 (centres undefined)	.	0.1%	3.9	73.9	2.0	6.2
CNc1nnc(-c2ccncc2)s1	2.2	-2.6%[38.3 µM]	0.1	1.0	-0.2	6.9
Cc1ccc(NC(=O)c2ccc(Cl)c(S(=O)(=O)N3CCc4ccccc43)c2)nc1	-30.0	1.2%	-1.9	34.6	3.6	2.8
